Screening data deposited in PubChem by National Center for Advancing Translational Sciences (NCATS).
Rango dissoc inh: prevents RanGTP from dissociating the Rango-importin beta complex. Biochemical FRET Rango-importin beta, RanGTP-induced dissociation. 0.071% of 340,000 active. O95149+P62826. Potency, µM (doses to about 46.1 µM), inactives show at the highest dose activity change, negative = inhibition; active means falling FRET ratio curve, often poorly fitted, with flat reads before Ran was added; inconclusive means other falling curves, or compound fluorescence or quenching; inactive means flat or rising ratio curve;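 further: potency means the concentration at half of the fitted maximal effect; % of control where 0% means no effect; nearly all actives have a fitted effect of over 45% in size; -100% = wells without RanGTP and RCC1; the record marks most hits as doubtful in a second field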
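Recombinant Rango FRET biosensor (EYFP–snurportin 1 IBB–cerulean CFP10) at 0.1 uM premixed with 0.25 uM importin beta in PBS, 1 mM DTT, 0.02% Tween-20, 0.1% BSA. Compound added 5 min; RanGTP-RCC1 (0.6 uM Ran, 2 mM GTP, 0.2 uM RCC1) then triggers release, read at 45 min.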
miR-21 reporter: raises the signal of a miR-21 reporter. HeLa miR-21 FLuc reporter, luciferase, 48 h. Potency, µM (series often up to 38.3 µM), inactives show at the top dose reporter change, positive = more light. 340,000 tested, under 10 active. AID 2288; active = well fitted rising curve with a large enough effect; inconclusive = small, poorly fitted or top-dose-only effect; inactive = no such curve, though single readings can be large or run the other way;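 further: % of control where 0% means no effect; miR-21 action dims this reporter so a rising signal means less miR-21 action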
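HeLa cells stably expressing CMV-driven firefly luciferase with a downstream miR-21 binding sequence, endogenously expressing miR-21, were treated with titrations (up to about 40uM final) for 48 hours at 37 degree Celsius. Luciferase luminescence was read after lysis.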
Rango-impB inh: prevents formation of the Rango-importin beta complex | Rango CFP/YFP FRET sensor + importin beta, 45 min | 0.031% of 340,000 active | Potency, µM (titrated, usually from 92.2 µM), inactives show at the highest dose inhibition of complex formation | AID 540263 | Q14974; active = rising FRET ratio curve, often small or poorly fitted; inconclusive = mostly compound fluorescence or quenching in the first reads; inactive = flat curves in all reads;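 further: potency means the concentration at half of the fitted maximal effect; 0% = DMSO wells and 100% = buffer wells lacking importin beta; nearly all actives have a fitted effect of over 15% in size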
Target sequence (Q14974 whole entry, looked up): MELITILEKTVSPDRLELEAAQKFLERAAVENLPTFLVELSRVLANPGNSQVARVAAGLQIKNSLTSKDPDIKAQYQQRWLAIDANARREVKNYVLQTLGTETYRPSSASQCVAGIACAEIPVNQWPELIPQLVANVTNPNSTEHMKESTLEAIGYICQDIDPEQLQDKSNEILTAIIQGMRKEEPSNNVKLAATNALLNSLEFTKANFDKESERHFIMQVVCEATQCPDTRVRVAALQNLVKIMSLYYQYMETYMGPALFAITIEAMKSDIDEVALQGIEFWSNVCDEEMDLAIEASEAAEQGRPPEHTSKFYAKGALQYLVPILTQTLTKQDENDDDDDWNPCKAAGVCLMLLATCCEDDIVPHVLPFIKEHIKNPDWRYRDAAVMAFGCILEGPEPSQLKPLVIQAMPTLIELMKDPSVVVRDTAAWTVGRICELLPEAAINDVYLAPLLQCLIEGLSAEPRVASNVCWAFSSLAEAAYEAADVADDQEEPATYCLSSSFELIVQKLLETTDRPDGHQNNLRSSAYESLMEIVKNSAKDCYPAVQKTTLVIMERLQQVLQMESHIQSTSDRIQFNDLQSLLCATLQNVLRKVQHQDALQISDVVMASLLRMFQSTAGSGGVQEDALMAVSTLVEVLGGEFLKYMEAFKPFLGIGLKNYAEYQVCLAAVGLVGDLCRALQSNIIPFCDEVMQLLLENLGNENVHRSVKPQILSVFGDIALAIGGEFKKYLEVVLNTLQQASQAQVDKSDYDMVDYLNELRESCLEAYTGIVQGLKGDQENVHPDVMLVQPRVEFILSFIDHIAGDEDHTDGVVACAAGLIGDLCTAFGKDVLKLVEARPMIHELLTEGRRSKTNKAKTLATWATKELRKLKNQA
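Inhibition scored from the CFP 486 nm/YFP 530 nm FRET ratio 45 min after adding 0.125 microM importin beta to 50 nM Rango biosensor preincubated 5 min with compound (room temperature, PBS with DTT, Tween-20, BSA). No-importin wells as positive control.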
GLA inh pH 4.5: alpha-galactosidase A (human) inhibition, pH 4.5 | P06280 | purified enzyme, 4-MU-alpha-Gal fluorescence, pH 4.5 | activity change, negative = inhibition, % at 105 µM | 230,000 tested, under 10 active | AID 1467; inconclusive = small, poorly fitted or top-dose-only inhibition, or a rising curve; inactive = flat fitted curve, though single readings scatter; no compound was filed as active;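 further: 0% = full activity with enzyme and -100% = basal without enzyme; dose as in the result columns while the protocol names 77 µM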
* = called active by the depositor; ? = inconclusive; . = no result given; & = joins results of further samples.

SMILES	Rango dissoc inh	miR-21 reporter	Rango-impB inh	GLA inh pH 4.5
CCN1/C(=C2\C(=O)N(C)C(=S)N2C)C=Cc2cc(OC)ccc21	-16%	0%	?	-1
CCOc1ccc(S(=O)(=O)NCC(=O)N(C)Cc2cccnc2)cc1	11%	-6%	0.4%	-8
COC(=O)c1sccc1-c1ccc(C(N)=O)o1	.	-6%	.	1
CCOc1ccc(CSC2=NCCN2)cc1Cl	-4%	-5%	3.8%	-21
CCc1cccc(C)c1N1C(=O)CN(Cc2ccccc2)C1=S	33%	2%	-7.9%	.
COc1ccc2c(c1)OC[C@H]1[C@H]2N2C(=O)c3cc(C)ccc3NC(=O)[C@@]2(C)[C@H]1c1ccccc1	-3%	.	0.9%	.
C#CCOCCOCCOCCNc1nc(N2CCN(C(=O)Cn3cc(CCCN=C(N)N)nn3)CC2)nc(N2CCN(C(=O)[C@H](CCCCN)n3cc(CCCC)nn3)CC2)n1	-6%	.	0.3%	.
COC(=O)Cn1ccc2cc(S(=O)(=O)N3CCCCCC3)ccc21	0%	-7%&0%	-0.6%	.
O=C(O)C(Cc1ccccc1)N1C(=O)/C(=C/c2cccc3ccccc23)SC1=S (stereo not given)	.	1%	.	-7
CC(C)=CCC[C@](C)(O)C1CC[C@]2(C)C1C(O)CC1[C@@]3(C)CCC(O)C(C)(C)C3C(O[C@@H]3OC(CO)C(O)C(O)C3O[C@@H]3OC(C)C(O)C(O)C3O)C[C@]12C (stereo not given in full)	2%	.	1.0%	.
COc1c(O)ccc(/C=N\NC(=O)c2ccc3c(c2)OCO3)c1[N+](=O)[O-]	-1%	-32%	-3.9%	.
CCc1nc(NCc2ccco2)c2oc3ccccc3c2n1	3%	-14%	-0.2%	.
COC(=O)CCC(C(=O)CN1C(=O)c2ccccc2C1=O)N1C(=O)c2ccccc2C1=O (stereo not given)	1%	.	-0.5%	.
Cc1ccc(NC(=O)c2ccc(OC(=O)COc3cccc(Cl)c3)cc2)cc1	-7%	-58%	-1.7%	-3
COc1c(O)c(O)c2oc(-c3ccccc3)cc(=O)c2c1OC	3%	-8%	8.6%	4
CCN1CCN(c2ccc(S(=O)(=O)N3CCCCC3)cc2NC(=O)c2cccc(F)c2)CC1	?	.	3.6%	.
CCCN(CC(=O)Nc1ccccc1C)C(=O)c1ccc(N2CCCCCC2)c([N+](=O)[O-])c1	-8%	0%	1.1%	.
CCC[C@@H](CN1CCC[C@H]1CN1C(N)=NC[C@H]1CC(C)C)N1C[C@@H]([C@H](C)CC)N(CCc2ccc(Cl)c(Cl)c2)C1=N	1%	.	1.1%	.
O=C(NCc1cccnc1)Nc1cccc(Cl)c1Cl	4%	-21%	-2.4%	.
COc1ccc(C(=O)O/N=C(\N)c2ccccc2)cc1	4%	-33%	-2.2%	.
Nc1ccnc(=O)[nH]1	-5%	.	-1.4%	.
Cc1cccc(N/C(=N\S(=O)(=O)c2ccccc2)C(F)(F)F)c1	5%	-6%	-0.8%	1
O=[N+]([O-])c1cc(C=Nc2ccc3ccccc3c2)ccc1Br	4%	-28%	1.4%	2
O=C(COc1coc(CN2CCN(c3ccc(F)cc3)CC2)cc1=O)NCC1CCCO1 (stereo not given)	10%	.	5.9%	.
Brc1ccc(-c2nnc3ccc(Nc4ccccc4)nn23)cc1	.	0%	.	-1

(next part)
SMILES	Rango dissoc inh	miR-21 reporter	Rango-impB inh	GLA inh pH 4.5
CC1CCN(C(=O)CCCOc2cc(=O)n(C)c3ccccc23)CC1	2%	-14%	-1.0%	-1
NC(=O)Nc1ccc(C(=O)OCC(=O)Nc2ccc(Cl)cn2)cc1	-9%	6%	-5.4%	2
O=[N+]([O-])c1ccc2c(c1)C(N1CCOCC1)/C(=C/COc1ccc3ccccc3c1Br)O2 (stereo not given)	16%	-2%	2.5%	-10
CC1C(=O)Nc2ccccc2N1C(=O)c1ccc(Cl)cc1 (stereo not given)	-8%	0%	0.6%	.
CN(c1ccccc1)S(=O)(=O)c1ccc(C(=O)N2CCc3ccccc3C2)cc1	2%	-1%	1.9%	-14
COc1ccc(OC(C)C(=O)N(C)Cc2nc(-c3cccc(C)c3)no2)cc1 (stereo not given)	1%	10%	-3.0%	.
O=C1CC(c2ccccc2)=C(c2ccccc2)C1c1ccccc1 (stereo not given)	-14%	.	?	.
Cc1nn(C)cc1CN(C)C(=O)c1nn2c(c1Br)NC(c1cccs1)CC2C(F)(F)F (stereo not given)	0%	3%	1.8%	-4
COc1cccc(NC=C2C(=O)OC3(CCCCC3)OC2=O)c1	-10%	-14%	-2.1%	5
CC(Sc1nnc2c(n1)[nH]c1ccccc12)C(=O)NC1CCCCC1 (stereo not given)	1%	17%	3.4%	.
Nc1cccc(C(=O)Nc2ccc3nc(-c4cccnc4)[nH]c3c2)c1	3%	0%	0.3%	-20
CCCc1nnc(NC(=O)NCCN2C(=O)C3C4C=CC(C4)C3C2=O)s1 (stereo not given)	11%	-15%	-2.6%	7
Cc1nn(C)c(C)c1NS(=O)(=O)c1ccc(Cl)cc1	-1%	.	1.9%	.
Cc1n[nH]c(=O)c2c(NC(=O)COC(=O)Cc3ccc(Cl)cc3Cl)oc(C)c12	-9%	.	-3.1%	.
CC1Cc2cc(S(=O)(=O)NCc3ccccc3)ccc2N1C(=O)C1CC1 (stereo not given)	-1%	-7%	3.5%	.
CSCCC(NC(=O)c1cccc(C)c1)C(=O)OCC(=O)NC(=O)c1cccn1C (stereo not given)	6%	-4%	-2.4%	3
Cc1c(C(=O)NCc2ccc3c(c2)OCO3)oc2ccc(Br)cc12	1%	-1%	2.3%	-2
CCCCC(=O)Nc1sc2c(c1-c1nc3ccccc3s1)CCN(C(C)=O)C2	.	-6%	.	-3
COc1ccc(OC)c(NC(=O)Nc2cc(C(=O)O)ccc2C)c1	5%	1%	-3.7%	2
Cc1ccc(C(=O)N2CCN(c3ccccn3)CC2)cc1Cl	?	0%	-1.6%	.
O=c1[nH]n(-c2ccc(Cl)cc2)c2ncccc12	-1%	-11%	0.2%	-8
Cc1ccc(CNC(=O)CCCC(=O)c2ccccc2)cc1	3%	0%	0.2%	.
COc1ccccc1C(=O)Nc1nc(N)n(-c2ccccc2)n1	-14%	-10%	-2.0%	-5
O=C(CSc1nnc(Nc2ccccc2)s1)NC1CC1	12%	.	-0.2%	.
CC(=O)NC(Cc1ccccc1)C(=O)Oc1ccc2ccccc2c1 (stereo not given)	?	.	5.0%	.

The listing continues:
SMILES	Rango dissoc inh	miR-21 reporter	Rango-impB inh	GLA inh pH 4.5
COc1ccc(/C=N/NC(=O)CCc2n[nH]c(=O)[nH]c2=O)cc1O	28%	-6%	-2.1%	3
CC(C)OCCCn1c(SCC(=O)N2CCCC2=O)nc2ccccc2c1=O	21%	.	-4.0%	.
NC(=O)SCC(=O)Nc1cccc(Cl)c1	10%	1%	0.4%	2
COc1ccc(-c2c(C)n([O-])c3c([n+]2=O)CCCC3)cc1OC	.	0%	.	2
COc1ccc(OC)c(NC(=O)C(C#N)=Cc2ccco2)c1	-6%	.	3.1%	.
N#Cc1nc(-c2ccco2)oc1N1CCN(C(c2ccccc2)c2ccccc2)CC1	-18%	-7%	0.6%	1
CCOC(=O)C1CCCCN1S(=O)(=O)c1ccc2c(c1)CC(C)N2C(=O)C1CCC1 (stereo not given)	-10%	16%	-2.7%	.
COc1ccc(C(CNC(=O)c2oc3ccc(OC)cc3c2C)N2CCCC2)cc1 (stereo not given)	-5%	.	-0.7%	.
COc1ccc(C(=O)NC(=S)Nc2ccc(S(=O)(=O)Nc3cc(OC)ncn3)cc2)cc1	-4%	5%	5.9%	.
Cc1ccc(C(F)(F)F)cc1NC(N)=S	-18%	10%	-5.5%	4
Cc1cc(N2C(=O)C=CC2=O)c([N+](=O)[O-])cc1C	-7%	?	-1.4%	4
CN(CC(=O)Nc1ccc(Cl)cc1)C(=O)CNC(=O)c1ccc(Br)o1	16%	.	-1.9%	.
COC(=O)C(C)Sc1nc(N)c(NC(=O)c2ccco2)c(=O)[nH]1 (stereo not given)	0%	-6%	-1.7%	8
O=C1c2ccccc2C(=O)N1CCC(O)C[N+](=O)[O-] (stereo not given)	-9%	2%	0.8%	6
CCOC(=O)C1(Cc2ccccc2)CCN(Cc2cc(=O)c3ccccc3[nH]2)CC1	-15%	3%	-1.9%	?
Clc1ccc(-c2csc(N3CCc4ccccc4C3)n2)cc1	8%	-10%	-1.8%	7
COc1cc(C(=O)NCCOc2cc(C)cc(C)c2)c(Br)c(OC)c1OC	15%	19%	0.4%	-2
O=C(NCCc1ccccc1F)c1ccc2c(c1)OCCO2	3%	?	0.3%	.
CCCc1nnc2c(N(C)S(=O)(=O)c3ccc(C)cc3)nc3ccccc3n12	-1%	-11%	?	3
O=[N+]([O-])c1ccc2nccn2c1	-3%	-2%	-0.1%	-6
CCOC(=O)c1nn(-c2ccc(F)cc2)c2nc(-c3ccccc3)c(C#N)c(=O)n12	5%	-5%	5.5%	4
CCOC(=O)/C(C(N)=NCC(C)C)=C(/O)c1ccccc1	2%	-19%	-1.5%	3
O=C(Nc1cc(C(F)(F)F)ccc1N1CCCC1)c1ccc2c(c1)OCO2	1%	-5%	0.3%	-2
COC(=O)c1ccccc1NC(=O)c1cccc(NC(=O)CSCc2ccccc2)c1C	-10%	-10%	-5.3%	11
CCCCOC(=O)c1cc(=O)[nH]c2ccccc12	-14%	-28%	10%	-3

Exported with two lines to a compound: part of the list above
Values run as follows: Rango dissoc inh	miR-21 reporter	Rango-impB inh	GLA inh pH 4.5
- CCOC(=O)C1(Cc2ccccc2)CCN(Cc2cc(=O)c3ccccc3[nH]2)CC1
 : -15%	3%	-1.9%	?
- Clc1ccc(-c2csc(N3CCc4ccccc4C3)n2)cc1
 : 8%	-10%	-1.8%	7

Next structures follow:
SMILES	Rango dissoc inh	miR-21 reporter	Rango-impB inh	GLA inh pH 4.5
Cc1nc(NC(=O)/C=C/c2ccc(F)cc2)sc1C(=O)N(C)C	3%	-16%	-0.2%	-15
FC(F)(F)c1cccc(-c2nnc3ccc(C(F)(F)F)cn23)c1	3%	-16%	-0.2%	-1
CC(=O)c1cccc(N2C(=O)C3C(C(=O)Nc4cc(C)on4)C4(C)C=CC3(O4)C2C(=O)NC(C)(C)C)c1 (stereo not given)	-2%	3%	-0.5%	2
O=S(=O)(c1ccc(SCCOc2ccc(F)cc2)nc1)N1CCCC1	-10%	.	-0.6%	.
O=C(O)CCn1cc(-c2ccc(Cl)cc2)nc1-c1ccncc1	18%	.	0.3%	.
CCNC(=O)OCC(CC)NC(=O)OCC(C)C (stereo not given)	12%	-3%	-2.0%	-25
O=C(CCN1CCN(c2ccc(F)cc2)CC1)Nc1ccc(F)cc1	26%	0%	-3.5%	4
COCCN1C(=O)c2ccc(C(=O)O)cc2C1=O	4%	-2%	1.7%	-4
COc1ccc(C(=O)NCC(=O)N/N=C/C(C)=C/c2ccco2)cc1OC	3%	22%	-0.4%	-11
CNC(=O)c1cccn1-c1ccsc1C(=O)OC	-4%	3%	4.8%	13

Fetched by compound from the list above (4):
SMILES	Rango dissoc inh	miR-21 reporter	Rango-impB inh	GLA inh pH 4.5
COc1ccc(C(=O)NCC(=O)N/N=C/C(C)=C/c2ccco2)cc1OC	3%	22%	-0.4%	-11
COCCN1C(=O)c2ccc(C(=O)O)cc2C1=O	4%	-2%	1.7%	-4
Cc1nc(NC(=O)/C=C/c2ccc(F)cc2)sc1C(=O)N(C)C	3%	-16%	-0.2%	-15
O=C(O)CCn1cc(-c2ccc(Cl)cc2)nc1-c1ccncc1	18%	.	0.3%	.

Filtered by structure, the compounds so far with a COOH group (four)
SMILES	Rango dissoc inh	miR-21 reporter	Rango-impB inh	GLA inh pH 4.5
O=C(O)C(Cc1ccccc1)N1C(=O)/C(=C/c2cccc3ccccc23)SC1=S (stereo not given)	.	1%	.	-7
COc1ccc(OC)c(NC(=O)Nc2cc(C(=O)O)ccc2C)c1	5%	1%	-3.7%	2
O=C(O)CCn1cc(-c2ccc(Cl)cc2)nc1-c1ccncc1	18%	.	0.3%	.
COCCN1C(=O)c2ccc(C(=O)O)cc2C1=O	4%	-2%	1.7%	-4

Only part of the results is shown; rates above refer to the full screens.
